VACV E9 pol inh: vaccinia E9 polymerase processive synthesis inhibitors, primary screen, biochemical, absorbance | Vaccinia virus DNA polymerase (E9) processive complex | in vitro processive DNA synthesis, absorbance read-out; active compounds read low; some inactives read as strong as hits | normalized absorbance, % (concentration not given with the values) | 0.94% of 46,000 active;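 active = replicate mean up to 90% and picked by the depositor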;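 also: 100% = median of the test wells of a plate; 100 nL library stock went into each well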
* = called active by the depositor; & = joins results of further samples. A portion of the library; count on the stated rates, not on these rows.

SMILES	VACV E9 pol inh
COc1cccc(NC(=O)C(C)Sc2nc(-c3ccccc3)cc(C(F)(F)F)n2)c1 (stereo not drawn)	81.1
O=C(CSc1nnc(CNC(=O)c2ccco2)o1)NCc1ccccc1	99.1
CC1CC(C)CN(c2ccc(NS(=O)(=O)c3ccccc3)cc2C(=O)O)C1 (stereo not drawn)	96.8
O=C(O)CCCC(=O)NC1CCCc2ccccc21 (stereo not drawn)	87.2
CCCNC(=O)C1=C(C)C(=O)OC12CCCCC2	99.2
O=C(c1nc2ncccn2n1)N1CCc2ccccc2C1	105.4
C1=C(N2CCOCC2)/C(=C/c2nc3ccccc3[nH]2)CC1	100.4
CCc1cc2cc(C(=O)O)sc2s1	99.7
Cc1nc2ccccc2c(=O)n1NCc1ccccc1Br	97.9
Cc1nc(O)c(C(c2ccccc2F)C(C#N)C#N)[nH]1 (stereo not drawn)	99.9
Cc1cc(C(=O)N2CCN(C(c3ccccc3)c3ccccc3)CC2)on1	92.6
Cc1cc2nccc(-c3ccccc3)n2n1	93.8
Cn1c2ccccc2c2nnc(SCCCC(=O)c3ccc(F)cc3)nc21	99.5
CCC(C)c1ccccc1NC(=S)Nc1cccnc1 (stereo not drawn)	97.1
CC(=O)N(/C=C1\SC(=S)N(Cc2ccccc2)C1=O)c1ccccc1	100.0
CCN(C(=O)Cc1c(C(=O)O)[nH]c2ccc(Cl)cc12)c1ccc(C)c(C)c1	93.1
Cc1cccn2c(=O)c3cc(C(=O)N(C)Cc4ccccc4)sc3nc12	99.0
COc1ccccc1C1CC(=O)Nc2cc3c(cc21)CCC3 (stereo not drawn)	104.6
COC(=O)c1ccc(NC(=O)CSC2=NCCN2)cc1	93.6
Cc1cccc(-n2nnc(-c3ccc(C(C)(C)C)cc3)n2)c1	93.6
Cc1cc(NC(=O)CSc2nccn2-c2ccccc2)no1	99.6
Cc1ccc(C)c(SCC(=O)NC(C)C(c2cccs2)N2CCCC2)c1 (stereo not drawn)	100.5
COc1cc(CN2c3ccccc3N3CCCCCC32)cc(OC)c1OC (stereo not drawn)	95.3
CCc1ccc(C(=O)Nc2ccc(S(N)(=O)=O)cc2)cc1	98.2
O=C1C2=C(C(=O)N1c1ccc(Br)cc1)C(c1ccccc1)=NCCN2	104.6
(list continues)
SMILES	VACV E9 pol inh
O=C(O)CCc1cccnc1	101.7
COc1ccc(CCNC(=O)c2nc3ccccc3c(=O)n2-n2cccc2)cc1OC	100.1
CCc1sc(N)nc1-c1ccc(Cl)cc1	98.6&92.7
O=C1c2ccccc2-c2c1c1ccccc1c(=O)n2CC1CC1	87.0
O=C(O)c1c[nH]c2ccccc2c1=O	98.7
Cc1cc(=O)oc2cc(OCC(N)=O)ccc12	98.2
O=C(NC1CCCCC1)C1CCCN(S(=O)(=O)c2cccs2)C1 (stereo not drawn)	100.1
CCN1/C(=C\C=C\C(=O)c2ccccc2OC)Sc2ccccc21	110.6
CCc1nc(-c2ccccc2)cc(=O)[nH]1	100.6
CC1(C)OC[C@@H]([C@H](O)P(=O)(c2ccccc2)c2ccccc2)O1	88.3
O=C(CSc1ccc(Br)cc1)NCCCc1ccccc1	100.3
COc1ccc(C(O)C23CC4CC(CC(C4)C2)C3)cc1 (stereo not drawn)	98.2
CCCCC1=NN(C(=O)c2ccccc2)C(O)(C(F)(F)F)C1 (stereo not drawn)	99.9
Cc1ccc2c3c(ccc2n1)NC1=C(C(=O)CCC1)C3c1ccc(O)cc1 (stereo not drawn)	100.2
O=C(CC(c1ccccc1)c1ccccc1)N1CCc2ccccc2C1	99.7
CC(C)(C)C1=NOC(O)(C(F)(F)F)C1 (stereo not drawn)	99.9
C/C(Nc1ccc(OC(F)(F)F)cc1)=C1/CCOC1=O	118.5
NCCCS(=O)(=O)O	99.7
O=C(CCC1=NS(=O)(=O)c2ccccc2N1)NC1CCCCCCC1	101.4
N#CC1=C(SCC(=O)Nc2ccc(Cl)cc2)NC(=O)C(C#N)C12CCCCC2 (stereo not drawn)	92.1
COc1ccc(Cl)cc1S(=O)(=O)N1CCN(C23CC4CC(CC(C4)C2)C3)CC1	100.4
N#CCNC(=O)c1ccc(-c2ccccc2)cc1	94.2
O=C(c1ccccc1)c1ccc(C(=O)c2ccccc2)cc1	99.8
CN1CCC(OC(=O)c2ccc(F)cc2)CC1	104.3
Cc1ccc2nc(Nc3ccccc3)nc(-c3ccccc3)c2c1	100.1

A stretch from further up:
SMILES	VACV E9 pol inh
O=C(O)CCc1cccnc1	101.7
COc1ccc(CCNC(=O)c2nc3ccccc3c(=O)n2-n2cccc2)cc1OC	100.1
CCc1sc(N)nc1-c1ccc(Cl)cc1	98.6&92.7
O=C1c2ccccc2-c2c1c1ccccc1c(=O)n2CC1CC1	87.0
O=C(O)c1c[nH]c2ccccc2c1=O	98.7
Cc1cc(=O)oc2cc(OCC(N)=O)ccc12	98.2
O=C(NC1CCCCC1)C1CCCN(S(=O)(=O)c2cccs2)C1 (stereo not drawn)	100.1
CCN1/C(=C\C=C\C(=O)c2ccccc2OC)Sc2ccccc21	110.6
CCc1nc(-c2ccccc2)cc(=O)[nH]1	100.6
CC1(C)OC[C@@H]([C@H](O)P(=O)(c2ccccc2)c2ccccc2)O1	88.3
O=C(CSc1ccc(Br)cc1)NCCCc1ccccc1	100.3
COc1ccc(C(O)C23CC4CC(CC(C4)C2)C3)cc1 (stereo not drawn)	98.2
CCCCC1=NN(C(=O)c2ccccc2)C(O)(C(F)(F)F)C1 (stereo not drawn)	99.9
Cc1ccc2c3c(ccc2n1)NC1=C(C(=O)CCC1)C3c1ccc(O)cc1 (stereo not drawn)	100.2
O=C(CC(c1ccccc1)c1ccccc1)N1CCc2ccccc2C1	99.7
CC(C)(C)C1=NOC(O)(C(F)(F)F)C1 (stereo not drawn)	99.9
C/C(Nc1ccc(OC(F)(F)F)cc1)=C1/CCOC1=O	118.5
NCCCS(=O)(=O)O	99.7
O=C(CCC1=NS(=O)(=O)c2ccccc2N1)NC1CCCCCCC1	101.4
N#CC1=C(SCC(=O)Nc2ccc(Cl)cc2)NC(=O)C(C#N)C12CCCCC2 (stereo not drawn)	92.1
COc1ccc(Cl)cc1S(=O)(=O)N1CCN(C23CC4CC(CC(C4)C2)C3)CC1	100.4
N#CCNC(=O)c1ccc(-c2ccccc2)cc1	94.2

The list continues.
SMILES	VACV E9 pol inh
COC1=CC(=O)OC(/C=C/c2ccccc2)C1 (stereo not drawn)	100.5
CC1=CC(=O)/C(=C\c2c(O)cc(C)oc2=O)C(=O)O1	96.8
Cc1ccccc1Cn1c(=O)n(CCC(=O)NCCc2ccccc2)c(=O)c2ccccc21	102.8
O=c1[nH]c(=O)n([C@H]2CC(O)[C@@H](CO)O2)cc1Br (stereo partly drawn)	86.5
CCN1CCCC1CNC(=O)c1ccc2c(=O)n3c(nc2c1)CCCCC3 (stereo not drawn)	98.3
Cc1ccc(C(=O)/C=C/N(C)C)cn1	131.2
O=S(=O)(NC1CCCC1)c1ccc(-n2cccn2)cc1	98.3
COc1ccc(C2C(C(=O)NCCCN3CCC(C)CC3)c3ccccc3C(=O)N2C)cc1 (stereo not drawn)	97.3
Cc1cc2oc(=O)cc(CCl)c2cc1C	101.8
COc1ccc(C2=NC(C(F)(F)F)(C(F)(F)F)N=C(c3ccccc3C)O2)cc1	101.3
CN1C(=O)/C(=C\C=C\c2ccccc2Cl)SC1=S	99.9
NS(=O)(=O)c1ccc(NC(=O)c2ccc3ncsc3c2)cc1	96.3
CC(C)C12CCCC(C(=O)O)(CCC1)C2	92.3
Cc1ccc(/C=C2\SC(=S)N(C(C(=O)O)C(C)C)C2=O)cc1 (stereo not drawn)	99.1
COc1ccc(OC)c2c1CC(C)(C)N=C2SC	100.0
CC1(C)Cc2cccc(OCC(O)CNCc3ccccc3)c2O1 (stereo not drawn)	98.8
COc1ccc(-c2noc(CC(=O)Nc3cccc(OC)c3)n2)cc1	107.8
CC12COC3(C(=O)O)CC1CCC32C (stereo not drawn)	100.8
CCn1cc(CCCC(=O)N2CCCC2)c2ccccc21	104.9
N#CCCN(C(=O)c1cncc(Br)c1)c1ccccc1F	102.1
c1coc(CNCC2OCc3ccccc3CO2)c1	100.6
Cc1nnc2n1NC(=Nc1ccc(Br)cc1)CS2	99.1
CC(C)(C)OC(=O)NC1CCN(C(=O)NC2CCCCC2)CC1	102.9
O=C(O)COc1cccc2nsnc12	102.1
CC[n+]1ccccc1/C=C/N(C(C)=O)c1ccccc1	100.3
The list goes on.
SMILES	VACV E9 pol inh
CCOC(=O)c1c(NC(=O)c2ccccc2)sc2c1CCC2	103.6
Cc1cc(OCc2nc(-c3ccc(OCC(N)=O)cc3)no2)cc(C)c1Cl	100.1
CCOC(=O)c1oc2c(CN3CCN(C)CC3)c(O)ccc2c(=O)c1-c1ccc(OC)cc1	102.3
CCCCN(Cc1cc2cccc(C)c2[nH]c1=O)S(=O)(=O)c1ccccc1	98.5
COc1cccc(/C=C2/SC(=S)N(CCC(=O)N3CCCCC3)C2=O)c1	88.4
O=C(CN1C(=O)/C(=C/c2ccccc2Cl)SC1=S)Nc1ccccc1C(F)(F)F	99.4
COc1cccc(C(=O)/C=c2\[nH]c(=O)/c(=C\c3cccs3)s2)c1	95.5
O=C(COC(=O)c1ccccc1F)Nc1ccccc1	103.7
COc1ccc(C(=O)CNc2ccccc2Br)cc1	102.0
CCCCn1c(N)nc2ccccc21	99.8
COc1cccc(-n2nnc3c(=O)n(CC(=O)c4ccc(Cl)cc4)cnc32)c1	103.5
Cc1cccc(C)c1NC(=O)C(NC(=O)c1ccc(-n2cnnn2)cc1)c1ccccc1 (stereo not drawn)	99.2
CCc1ccccc1N1CC(C(=O)O)CC1=O (stereo not drawn)	94.4
O=C(Nc1ccc(N2C(=O)C3C4C=CC(C4)C3C2=O)cc1)Nc1nncs1 (stereo not drawn)	96.0
CN(C)/C=C/C(=O)c1ccc2c(c1)CCC(C)(C)O2	104.3
COC(=O)c1cccc(NC(=O)C2COc3ccccc3O2)c1C (stereo not drawn)	93.0
O=C(COc1ccccc1)N(Cc1ccccc1O)c1ccccc1Cl	97.1
CC1(C)CC(=O)C(C(c2ccc(Cl)cc2)C(C#N)C(N)=S)=C(O)C1 (stereo not drawn)	95.1
Cc1cc(C(=O)Nc2ccccc2N2CCCCC2)nn1C	98.2
CC(=O)NC1CC(C)(C)NC(C)(C)C1	100.6
Cc1cc(C)cc(OCC(=O)N2CCN(Cc3ccccc3)CC2)c1	71.1
Cc1nn(-c2ccccc2)cc1C1C=C(c2ccc(Cl)cc2)N=C2SCC(=O)N21 (stereo not drawn)	98.4
COc1ccc2c(c1C)CCC(C1(O)C(=O)N(C)c3ccccc31)C2=O (stereo not drawn)	100.2
O=C(O)CCNC(=O)c1ccc(NC(=O)C(c2ccccc2)c2ccccc2)cc1	98.8
COc1ccccc1NC(=O)c1c[nH]c2ccccc12	88.6
The results go on.
SMILES	VACV E9 pol inh
N#CCN(CC#N)S(=O)(=O)c1cc(Cl)ccc1Cl	100.5
Cc1nonc1OCC12CC3CC(CC(C3)C1)C2	100.7
COC(=O)C1=NOC2C(=O)N(c3ccc(OC)cc3)C(=O)C12 (stereo not drawn)	101.8
CC(NC(=O)c1ccccc1C(=O)O)C12CC3CC(CC(C3)C1)C2 (stereo not drawn)	109.4
O=C(CCc1ccccc1)N1CCN(c2nc3ccccc3s2)CC1	97.6
CCN(CC)c1ccc(C2C3=C(CC(C)(C)CC3=O)OC3=C2C(=O)CC(C)(C)C3)cc1	100.1
COc1cccc(C(=O)NCCc2csc3nc(-c4ccc(C)cc4)nn23)c1OC	99.9
Cn1cccc1Cc1nnc(SCC(=O)N2CCCc3ccccc32)n1C	89.3
Cc1nc2ccccn2c1-c1ccnc(SCC(=O)c2cccc(C(F)(F)F)c2)n1	100.2
COc1cccc2c1oc(=O)c1c(NC(C)=O)nc3c(c12)CCCCC3	97.3
CC1CC(C)CN(CC(O)COCc2ccccc2F)C1 (stereo not drawn)	101.8
c1ccc2c(c1)ccc1oc(-c3ccn[nH]3)cc12	77.8
O=C1CC(c2ccc(F)cc2)CC(O)=C1C1NCCc2ccccc21 (stereo not drawn)	89.6
N#C/C=C(\Sc1nc2ccccc2o1)c1ccccc1	101.0
O=C(O)C1CC(=O)N(CCc2c[nH]c3ccccc23)C1 (stereo not drawn)	86.1
CCn1c(SCC(=O)NCCc2ccccc2)nnc1-c1c[nH]c2ccccc12	107.5
Cc1c(C(=O)NCc2ccccc2)oc2ccccc12	81.5
CCc1ccc(NC(=O)CCC(=O)Nc2ccc3nc(N4CCCCC4)cc(C)c3c2)cc1	97.5
O=C(NCCc1ccsc1)c1cc2c(s1)-c1ccccc1OC2	98.6
Cc1cc(C)n(-c2nc(C)nc3sc4c(c23)CCC4)n1	98.7
O=C(Nc1c(F)cccc1Cl)N1CCCC1	89.7
CC(NC(=O)C(c1ccccc1)c1ccccc1)c1ccccc1 (stereo not drawn)	100.8
O=C(CC(c1ccccc1)c1cc(Cl)ccc1O)N1CCCCC1 (stereo not drawn)	92.9
CCOC(=O)C1=CNc2ccccc2S1	94.9
CN(C)c1ccc(/C=C2\C(=O)Nc3ccccc32)cc1	99.6
Further results follow:
SMILES	VACV E9 pol inh
CCOc1ccc(NCc2cn3cccnc3n2)cc1	90.9
COc1cccc(NC(=O)CSc2nccn2-c2ccccc2)c1	102.1
O=C1C(Oc2ccccc2)C(c2ccc3c(c2)OCO3)N1C1CCCC1 (stereo not drawn)	105.5
Cc1c(C(=O)N2CCCC2)oc2ccc(S(=O)(=O)N3CCCC3)cc12	105.9
O=C(Cn1c(=O)c(C(F)(F)F)nc2ccccc21)N1CCc2ccccc2C1	103.5
CC(C)(C)Nc1nc(C(=O)O)nc(N2CCOCC2)n1	98.7
CCOC(=O)Cn1cc(F)c(=O)[nH]c1=O	100.3
COc1ccccc1C1OC(=O)C[C@H]1C(=O)NN (stereo partly drawn)	103.6
O=c1c2nccnc2[nH]c(=S)n1CCc1c[nH]c2ccccc12	99.4
CCC(=S)/C=C1/Sc2ccc(Cl)cc2N1CC	99.9
c1ccc(-c2ccccc2-n2cnnn2)cc1	91.7
Cc1ccc(S(=O)(=O)NCc2ccccc2)cc1	101.2
S=P(N1CC1)(N1CC1)N1CC1	97.3
Cc1ccc(NC(=O)N2c3ccccc3Sc3ccccc32)c(C)c1	100.0
c1csc(Cc2nc3ccccc3[nH]2)c1	105.4
CC1(O)NC(=O)C2(C#N)C(C#N)(C#N)C12c1ccccc1 (stereo not drawn)	99.9

From PubChem
